Screens: PubChem, Broad Institute
rRNA inh HTS = reduced GFP signal of wild-type E. coli, primary screen, bacterial rRNA inhibitor project, GFP/RFP fluorescence, OD600, single point; AID 720706, 2013; E. coli WT GFP vs humanized-ribosome RFP mutants, 24 h; hits give low values; DMSO median 0, no signal -100; GFP signal change (wild-type ribosome), % (no concentration beside the values); 350,000 compounds, 1.6% hits;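 active = significant combined selectivity score with lowered wild-type GFP, culture density cut under 30%, mutant RFP and density less affected; inactive = any of these conditions unmet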; also: one replicate is shown; some compounds called inactive have numbers as strong as hits
MLL AF4-AF9 inh = inhibitors of AF4 peptide binding to AF9, primary screen, biochemical, AlphaScreen, biotin-AF4 peptide, FLAG-AF9, single point; Protein AF-9 (Homo sapiens), P42568; inhibition, % at 10 µM; 350,000 compounds, 0.47% hits;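 active = every replicate reaching a set inhibition limit, whatever the replicate mean, cut at about 25% in these data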;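 also: 0% = plate neutral control median and 100% = total signal loss; the record names both 10 and 1 µM as test concentration; the first replicate is given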
Target sequence (P42568 whole entry, looked up): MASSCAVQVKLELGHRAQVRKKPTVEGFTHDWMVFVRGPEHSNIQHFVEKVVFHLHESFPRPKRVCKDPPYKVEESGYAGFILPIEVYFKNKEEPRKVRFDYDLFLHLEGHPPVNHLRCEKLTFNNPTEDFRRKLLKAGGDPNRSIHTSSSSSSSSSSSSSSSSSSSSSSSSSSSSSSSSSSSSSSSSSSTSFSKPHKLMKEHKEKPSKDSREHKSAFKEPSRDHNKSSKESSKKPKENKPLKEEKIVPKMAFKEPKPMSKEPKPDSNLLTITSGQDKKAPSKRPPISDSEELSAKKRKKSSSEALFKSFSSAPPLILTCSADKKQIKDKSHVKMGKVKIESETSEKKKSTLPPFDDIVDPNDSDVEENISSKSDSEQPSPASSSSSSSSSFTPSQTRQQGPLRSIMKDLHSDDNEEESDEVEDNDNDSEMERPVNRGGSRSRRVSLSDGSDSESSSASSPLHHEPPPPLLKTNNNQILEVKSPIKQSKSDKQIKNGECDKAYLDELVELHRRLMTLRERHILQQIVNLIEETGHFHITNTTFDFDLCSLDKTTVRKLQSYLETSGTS
FGF22 binding = binders of human FGF22 protein, primary screen, FGF22 synaptogenesis inhibitor project, biophysical, thermal shift, single point; AID 651658, 2012; Fibroblast growth factor 22 (Homo sapiens), Q9HCT0; 340,000 compounds, 1.5% hits; recombinant FGF22 thermal shift, SYPRO orange fluorescence; percent of sucrose octasulfate shift, DMSO zero; calls only at 9.99 µM;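 active = melting point raised past a set limit in the mean and every replicate; three in four hits are not shown here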
Target sequence (Q9HCT0 whole entry, looked up): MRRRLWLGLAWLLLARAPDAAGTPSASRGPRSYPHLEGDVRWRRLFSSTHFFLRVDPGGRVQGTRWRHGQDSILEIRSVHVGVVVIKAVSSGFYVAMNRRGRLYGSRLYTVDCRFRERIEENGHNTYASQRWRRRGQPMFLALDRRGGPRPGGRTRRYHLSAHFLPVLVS
rRNA inh HTS OD600 = also measured in rRNA inh HTS; calls as there; OD600 change, %; measured here: OD600 growth;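 optical density of the mix in the first replicate; 0 = DMSO median and -100 = no signal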
rRNA inh HTS RFP = second read-out of rRNA inh HTS, no call of its own (marks repeat the call); RFP signal change, %; measured here: RFP humanized mutant strains;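 first replicate; 0 = DMSO median and -100 = no signal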
The depositor's hits bear a star; i = inactive.

SMILES	rRNA inh HTS	rRNA inh HTS OD600	rRNA inh HTS RFP	MLL AF4-AF9 inh	FGF22 binding
C[C@H]1CN([C@@H](C)CO)C(=O)c2cccc(NC(=O)NC3CCCCC3)c2O[C@H]1CN(C)Cc1ccc(C(F)(F)F)cc1	-1.3	-9.6	0.9	1.6	i
O=C(C[C@H]1CC[C@H]2[C@@H](COC[C@H](O)CN2Cc2cccc(C(F)(F)F)c2)O1)NCc1ccc(F)cc1	-14.5	-50.0	21.6	-0.1	i
O=C(N[C@H]1CC[C@H](CCn2cc(C3CCCCC3)nn2)O[C@@H]1CO)c1cccnc1	1.3	0.8	-0.5	1.6	i
C[C@@H]1CCCCO[C@@H](CN(C)S(C)(=O)=O)[C@@H](C)CN([C@H](C)CO)C(=O)c2cc(NC(=O)C3CCCCC3)ccc2O1	4.4	12.2	-2.5	-2.5	i
C[C@@H]1CN([C@H](C)CO)S(=O)(=O)c2ccc(-c3ccncc3)cc2O[C@H]1CN(C)S(=O)(=O)c1ccccc1F	-11.2	-19.0	-1.8	-0.6	i
COc1ccc(NC(=O)N[C@H]2CC[C@H](CCn3cc(-c4ccccc4)nn3)O[C@H]2CO)cc1	-0.6	2.5	-4.4	3.8	i
Nc1ccc(S(=O)(=O)c2ccc(N3CCOCC3)c(N)c2)cc1	-4.4	5.4	-1.3	0.0	i
C[C@@H]1CCCCO[C@H](CN(C)Cc2ccc3c(c2)OCO3)[C@@H](C)CN([C@H](C)CO)C(=O)c2cc(NC(=O)Nc3ccc(C(F)(F)F)cc3)ccc2O1	-1.7	-12.5	0.3	6.4	i
Cc1nc2ccc(C(=O)NCCCN3CCCC3=O)cn2c1N(C)C(=O)CCc1ccccc1	25.9	18.8	0.2	-2.1	i
Cc1ccc(Cl)cc1-c1cc(C(=O)NCc2cccc(Cl)c2)[nH]n1	-56.2	-67.6	-16.2	-0.2	i

6 compounds already listed, sorted by molecular weight, smallest number first:
SMILES	rRNA inh HTS	rRNA inh HTS OD600	rRNA inh HTS RFP	MLL AF4-AF9 inh	FGF22 binding
Nc1ccc(S(=O)(=O)c2ccc(N3CCOCC3)c(N)c2)cc1	-4.4	5.4	-1.3	0.0	i
COc1ccc(NC(=O)N[C@H]2CC[C@H](CCn3cc(-c4ccccc4)nn3)O[C@H]2CO)cc1	-0.6	2.5	-4.4	3.8	i
Cc1nc2ccc(C(=O)NCCCN3CCCC3=O)cn2c1N(C)C(=O)CCc1ccccc1	25.9	18.8	0.2	-2.1	i
O=C(C[C@H]1CC[C@H]2[C@@H](COC[C@H](O)CN2Cc2cccc(C(F)(F)F)c2)O1)NCc1ccc(F)cc1	-14.5	-50.0	21.6	-0.1	i
C[C@H]1CN([C@@H](C)CO)C(=O)c2cccc(NC(=O)NC3CCCCC3)c2O[C@H]1CN(C)Cc1ccc(C(F)(F)F)cc1	-1.3	-9.6	0.9	1.6	i
C[C@@H]1CCCCO[C@H](CN(C)Cc2ccc3c(c2)OCO3)[C@@H](C)CN([C@H](C)CO)C(=O)c2cc(NC(=O)Nc3ccc(C(F)(F)F)cc3)ccc2O1	-1.7	-12.5	0.3	6.4	i

The list goes on:
SMILES	rRNA inh HTS	rRNA inh HTS OD600	rRNA inh HTS RFP	MLL AF4-AF9 inh	FGF22 binding
CCCN1[C@H](C(=O)NCCN2CCCC2)[C@@H](CO)[C@@H]2Cn3c(ccc(-c4cccnc4)c3=O)[C@@H]21	1.4	2.4	-1.7	0.2	i
C[C@@H]1CN([C@@H](C)CO)C(=O)c2cc(NC(=O)Nc3ccc(F)cc3)ccc2O[C@@H](C)CCCCO[C@@H]1CN(C)C(=O)NC1CCCCC1	-1.0	-4.8	-3.7	1.8	i
C[C@H](CO)N1C[C@H](C)[C@H](CN(C)C(=O)NC2CCCCC2)Oc2ccc(NS(=O)(=O)c3cccs3)cc2CC1=O	2.4	0.2	0.5	-2.0	i
Cc1ccc(S(=O)(=O)N(C)C[C@@H]2Oc3ccc(NC(=O)CCCN(C)C)cc3CC(=O)N([C@@H](C)CO)C[C@H]2C)cc1	5.3	5.2	-1.9	4.4	i
C[C@H](CO)N1C[C@H](C)[C@@H](CN(C)S(=O)(=O)c2cn(C)cn2)OCCCC[C@H](C)Oc2ccc(NS(=O)(=O)c3ccc(Cl)cc3)cc2C1=O	-2.9	-4.0	1.3	-15.6	i
COc1ccc(NC(=O)Nc2cccc3c2O[C@H](CN(C)S(=O)(=O)c2ccccc2)[C@@H](C)CN([C@@H](C)CO)C3=O)cc1	-4.0	-2.8	1.6	6.0	i
COc1ccc(-c2c(Sc3ccccc3)c3cc(-c4ccc(OC)c(F)c4)ccc3n2C)cc1	-29.6	-28.0	7.0	-2.7	i
C[C@H]1CN([C@@H](C)CO)S(=O)(=O)c2ccc(C3=CCCCC3)cc2O[C@@H]1CN(C)Cc1ccncc1	-34.2	-51.5	20.0	11.2	i
COc1ccc(CN(C)C[C@H]2Oc3ccc(NS(=O)(=O)c4ccccc4)cc3CC(=O)N([C@H](C)CO)C[C@H]2C)cc1	1.4	-5.6	2.4	1.3	i
Cc1noc(C)c1S(=O)(=O)Nc1ccc2c(c1)C(=O)N([C@@H](C)CO)C[C@@H](C)[C@H](CN(C)C(=O)Cc1ccccc1)OCCCC[C@@H](C)O2	-1.5	-7.5	1.4	0.4	i

More compounds.
SMILES	rRNA inh HTS	rRNA inh HTS OD600	rRNA inh HTS RFP	MLL AF4-AF9 inh	FGF22 binding
COc1ccc(NC(=O)Nc2ccc3c(c2)CC(=O)N([C@@H](C)CO)C[C@@H](C)[C@@H](CN(C)C(=O)NC(C)C)O3)cc1	2.5	13.8	0.0	-2.0	i
O=C(C[C@H]1C[C@H]2c3cc(NC(=O)Nc4ccccc4F)ccc3O[C@H]2[C@@H](CO)O1)NC1CCCC1	-3.0	2.9	1.2	-14.7	i
COC(=O)CCN(Cc1ccc(OC)cc1OC)S(=O)(=O)c1ccccc1Br	-16.8	-26.1	-2.4	-1.1	i
Cc1noc(C)c1NC(=O)N(C)C[C@H]1OCCCC[C@H](C)Oc2ccc(NC(=O)NC(C)C)cc2C(=O)N([C@H](C)CO)C[C@@H]1C	2.7	6.7	-0.1	-2.8	i
COc1ccc(CNc2ccncc2)c(OC)c1OC	6.7	16.0	-1.9	1.3	i
CCC(=O)N(C)C[C@@H]1Oc2ncc(-c3ccc(F)cc3)cc2C(=O)N([C@H](C)CO)C[C@@H]1C	-0.8	-2.0	-1.6	-1.5	i
CC=Cc1ccc2n(c1=O)C[C@H]1[C@H](CO)[C@@H](C(=O)NCC(F)(F)F)[C@@H]2N1C(=O)C1CCCCC1 (mixture of isomers)	2.8	15.1	-3.6	1.3	i
O=C(NCCCN1CCOCC1)[C@@H]1[C@@H](CO)[C@@H]2Cn3c(cccc3=O)[C@H]1N2C(=O)C1CCCCC1	3.6	10.0	-2.8	-2.6	i
CC1(c2nnnn2-c2ccc3c(c2)OCCO3)CCC(=O)N1CCCn1ccnc1 (centres undefined)	28.1	22.1	2.1	-5.6	i
COc1ccc(S(=O)(=O)N(C)C[C@@H]2Oc3ccc(NS(=O)(=O)c4cccs4)cc3C(=O)N([C@@H](C)CO)C[C@H]2C)cc1	-1.0	1.5	0.1	-0.7	i

More entries follow:
SMILES	rRNA inh HTS	rRNA inh HTS OD600	rRNA inh HTS RFP	MLL AF4-AF9 inh	FGF22 binding
C/C=C/c1ccc2c(c1)O[C@H](CN(C)C(=O)c1ccccc1F)[C@@H](C)CN([C@H](C)CO)S2(=O)=O	-4.5	-9.3	-3.6	2.3	i
CNC[C@@H]1Oc2ncc(-c3ccccc3F)cc2C(=O)N([C@@H](C)CO)C[C@@H]1C	8.3	10.4	1.0	4.8	i
COc1ccc(NC(=O)N(C)C[C@H]2Oc3ccc(NC(=O)C4CC4)cc3C(=O)N([C@@H](C)CO)C[C@@H]2C)cc1	4.3	12.4	-1.5	-0.2	i
Cc1c(C(=O)NCc2cccc(Cl)c2)sc(=O)n1Cc1cccc(F)c1	-19.2	-33.2	-13.4	-0.9	i
CN(Cc1ccco1)C(=O)c1cccc(S(=O)(=O)N2CCN(Cc3ccccc3)CC2)c1	-11.0	-13.8	-0.2	2.0	i
C[C@H]1CN([C@@H](C)CO)C(=O)CCCn2nncc2CO[C@H]1CN(C)C(=O)OCc1ccccc1	1.6	9.2	-1.6	0.6	i
C[C@@H]1CN([C@@H](C)CO)C(=O)c2ccccc2-c2ccccc2CO[C@H]1CN(C)S(C)(=O)=O	2.6	7.1	-3.9	0.8	i
CC(C)CNc1cccc2c1S(=O)(=O)N[C@H](CC(C)C)CO2	4.7	1.0	-0.7	-0.7	i
O=C(Nc1ccccc1)N1CCCCN2[C@H](CO)[C@@H](c3ccc(C#Cc4ccccc4)cc3)[C@@H]2C1	2.5	2.5	5.2	-5.5	i
Cn1c(N)nc(N)c(NC=O)c1=O	7.2	12.6	2.3	-1.5	i

Next section:
SMILES	rRNA inh HTS	rRNA inh HTS OD600	rRNA inh HTS RFP	MLL AF4-AF9 inh	FGF22 binding
C[C@@H]1CN([C@H](C)CO)C(=O)c2cc(NC(=O)CCN3CCOCC3)ccc2O[C@H]1CN(C)Cc1ccc2c(c1)OCO2	3.7	5.9	1.3	-4.1	i
C[C@H](CO)N1C[C@H](C)[C@@H](CN(C)C(=O)C2CCCCC2)Oc2cc(-c3ccccc3)ccc2S1(=O)=O	-18.0	-29.0	4.3	4.0	i
C[C@H](CO)N1C[C@H](C)[C@@H](CN(C)CC2CC2)Oc2ccc(NS(=O)(=O)c3cn(C)cn3)cc2CC1=O	-0.2	0.4	-1.5	-3.5	i
COc1ccc2c3c(n(C)c2c1)[C@H](CO)N(CC1CCCCC1)CC31CCN(C(=O)CN(C)C)CC1	3.1	0.2	-0.1	4.4	i
COc1ccc(Cl)cc1Cn1c(C)c(C(=O)NCc2ccc(F)cc2)sc1=O	-7.3	-24.4	-0.8	-3.0	i
CN1C(=O)c2cc(NC(=O)Cc3cccs3)ccc2OC[C@@H]2O[C@@H](CC(=O)N[C@@H]3CCN(Cc4ccccc4)C3)CC[C@@H]21	1.5	0.7	-1.2	5.1	i
Cc1ccsc1C(=O)N1CCC1(C)C(=O)NCCC#N (centres undefined)	13.2	28.4	1.5	-3.4	i
COc1ccc(NC(=O)Nc2ccc3c(c2)CC(=O)N([C@@H](C)CO)C[C@@H](C)[C@H](CN(C)S(=O)(=O)c2ccc(C)cc2)O3)cc1	-5.1	6.5	-3.6	2.2	i
C[C@@H]1CN([C@H](C)CO)C(=O)c2cccc(NS(=O)(=O)c3ccccc3)c2O[C@H]1CN(C)S(=O)(=O)c1ccccc1	-0.4	-2.7	0.3	0.1	i
CN1C[C@H]2[C@@H](c3ccccc31)[C@@H](CO)N2C(=O)c1ccccn1	4.8	7.2	-1.5	-4.4	i

More entries:
SMILES	rRNA inh HTS	rRNA inh HTS OD600	rRNA inh HTS RFP	MLL AF4-AF9 inh	FGF22 binding
COc1ccc(NC(=O)N(C)C[C@@H]2Oc3c(cccc3N(C)C)C(=O)N([C@@H](C)CO)C[C@@H]2C)cc1	-0.4	8.8	1.7	-2.7	i
Cc1c(C)c2cc(Cl)c(OCC(=O)Nc3ccccn3)cc2oc1=O	2.5	11.2	0.5	-3.0	i
O=C(O)C[C@H]1C[C@@H]2c3cc(NC(=O)NC4CCCCC4)ccc3O[C@@H]2[C@@H](CO)O1	1.4	2.9	-0.9	-1.5	i
C[C@@H]1CN([C@@H](C)CO)C(=O)c2cccc(N(C)C)c2O[C@H]1CN(C)S(=O)(=O)c1ccc(Cl)cc1	-2.8	-3.9	2.3	0.2	i
Cc1ccc([C@H]2C[C@@H](O)[C@H](n3cc(-c4ccc(F)cc4)nn3)CN2C(=O)c2cccs2)cc1	-4.0	-10.3	0.0	0.5	i
COc1ccc(CN(C)C[C@H]2Oc3ccc(NC(=O)C4CC4)cc3CC(=O)N([C@H](C)CO)C[C@@H]2C)cc1	4.5	0.6	-1.5	-11.1	i
COc1cccc(CNC(=O)C[C@H]2C=C[C@H](NS(=O)(=O)c3ccccc3OC)[C@H](CO)O2)c1	-1.5	0.1	-1.8	-0.8	i
COCC(=O)N(C[C@@H]1N[C@@H](CO)[C@@H]1c1ccc(-c2cccnc2)cc1)C(C)C	1.7	12.6	-2.9	-1.4	i
COc1cc(CN2C(=O)C(CCc3ccccc3)ON=C2c2cnccn2)cc(OC)c1 (centres undefined)	-15.4	-12.2	-15.5	6.7	i
COc1ccc(NC(=O)Nc2ccc3c(c2)C(=O)N([C@@H](C)CO)C[C@@H](C)[C@H](CN(C)C(=O)Nc2ccc(C(F)(F)F)cc2)O3)cc1	-2.3	-0.9	-1.8	-6.2	i
Cc1ccc(Cn2cc(CN3CC(N(C)C)CS3(=O)=O)nn2)cc1 (centres undefined)	7.4	15.2	-3.7	0.5	i
C[C@H](CO)N1C[C@H](C)[C@@H](CN(C)C(=O)Nc2ccc3c(c2)OCO3)Oc2ccc(NC(=O)Nc3cccc4ccccc34)cc2CC1=O	-4.3	-4.8	-0.3	0.2	i
C[C@@H](NC(=O)C[C@@H]1CC[C@@H]2[C@H](COC[C@@H](O)CN2C(=O)Nc2cccc(F)c2)O1)c1ccccc1	-16.8	-45.0	-2.1	-2.7	i

A portion of the library; count on the stated rates, not on these rows.
